Screens deposited in PubChem BioAssay by several laboratories.
HNF4A DNA FP: change in binding of human HNF4A to DNA, primary screen, biochemical, fluorescence polarization, FITC-DNA. 1 h. activity change, % at 10 µM. actives 0.3% (n = 360,000). AID 1224865, 2016; in the data active means activity change above about 30%, passing the limit was not always enough;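 further: controls were the assay level and a saturating level of protein; the project sought stronger binding though the title names inhibitors; some compounds called inactive have numbers as strong as hits; positive values seem to mean higher polarization but the record does not say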
Target sequence (P41235 whole entry, looked up): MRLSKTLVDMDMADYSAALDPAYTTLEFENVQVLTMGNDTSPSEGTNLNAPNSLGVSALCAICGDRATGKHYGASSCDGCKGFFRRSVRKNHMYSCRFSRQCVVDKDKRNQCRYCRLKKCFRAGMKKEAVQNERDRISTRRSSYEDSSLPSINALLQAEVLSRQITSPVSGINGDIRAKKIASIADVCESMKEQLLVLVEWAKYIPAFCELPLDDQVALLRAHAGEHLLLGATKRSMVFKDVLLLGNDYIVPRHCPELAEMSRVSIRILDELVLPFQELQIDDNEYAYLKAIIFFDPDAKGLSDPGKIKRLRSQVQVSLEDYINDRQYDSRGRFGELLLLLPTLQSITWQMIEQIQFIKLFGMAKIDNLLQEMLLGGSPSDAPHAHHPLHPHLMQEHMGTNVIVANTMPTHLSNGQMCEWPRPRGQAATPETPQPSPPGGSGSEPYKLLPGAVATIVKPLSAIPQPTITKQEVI
Ecoli growth: E. coli growth inhibition, primary screen, OD600. Escherichia coli growth, 23 h; hits give low values. OD600 absorbance (no concentration beside the values). actives 0.21% (n = 330,000). AID 1053175, 2014;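 active means OD600 absorbance below the run mean of sample wells minus 3.6 SD, in any replicate, cut at about 0.56 in these data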;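 further: stock transfer was 300 nL into about 60 µL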
UCH37 DUB inh: inhibitors of human UCH37 deubiquitinase, primary screen, biochemical, Ub-AMC cleavage, fluorescence; Ubiquitin carboxyl-terminal hydrolase isozyme L5 (Homo sapiens), Q9Y5K5; purified proteasome/UCH37; actives 0.33% (n = 330,000); inhibition, % (test concentration not listed);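 active means mean of two replicates above 20%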;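 further: 0% = compound-free wells with enzyme and 100% = wells lacking proteasome; stock transfer was 100 nL into about 20 µL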
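Test system – human UCH37 enzyme supplied as purified proteasome complex · Incubation – 30 min preincubation with enzyme, 25 min cleavage at room temperature · Detection – AMC fluorescence from Ub-AMC cleavage, excitation 355 nm, emission 460 nm · Benchmarks – no-proteasome wells (full inhibition) and compound-free wells (no inhibition)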
ALR inh: inhibitors of human ALR sulfhydryl oxidase, primary screen, biochemical, H2O2 detection, HRP-luminol luminescence, single point; purified ALR, DTT oxidation; inhibition, % (no concentration beside the values); actives 3.8% (n = 290,000); AID 485317, 2010;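 active means mean and each replicate at 75% or more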;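 further: stock transfer was 7.5 nL into about 7.5 µL; 0% = neutral wells and 100% = wells with inactivated enzyme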
FGF22 binding: binders of human FGF22 protein, primary screen, FGF22 synaptogenesis inhibitor project, biophysical, thermal shift, single point | recombinant FGF22 thermal shift, SYPRO orange fluorescence; percent of sucrose octasulfate shift, DMSO zero | calls only at 9.99 µM | actives 1.5% (n = 340,000);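 active means melting point raised past a set limit in the mean and every replicate; three in four hits are not shown here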
Target sequence (Q9HCT0 whole entry, looked up): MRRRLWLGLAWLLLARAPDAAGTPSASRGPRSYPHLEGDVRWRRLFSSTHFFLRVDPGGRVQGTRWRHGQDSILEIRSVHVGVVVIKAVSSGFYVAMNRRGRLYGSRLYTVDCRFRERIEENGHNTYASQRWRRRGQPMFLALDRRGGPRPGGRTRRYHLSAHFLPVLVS
Beta2AR agonist: beta2AR agonists driving receptor internalization, primary screen, cell-based, FAP fluorogen, flow cytometry; Am2.2-beta2AR cells; reference of the scale not given here; response, % (no concentration beside the values); actives 0.43% (n = 340,000);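 active means response above a set limit, near 3 SD of response in nonfluorescent compounds, cut at about 42% in these data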;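 further: stock transfer was 100 nL into about 11 µL; a reference agonist was the positive control; negative values mostly stem from fluorescent compounds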
Target sequence (P07550 whole entry, looked up): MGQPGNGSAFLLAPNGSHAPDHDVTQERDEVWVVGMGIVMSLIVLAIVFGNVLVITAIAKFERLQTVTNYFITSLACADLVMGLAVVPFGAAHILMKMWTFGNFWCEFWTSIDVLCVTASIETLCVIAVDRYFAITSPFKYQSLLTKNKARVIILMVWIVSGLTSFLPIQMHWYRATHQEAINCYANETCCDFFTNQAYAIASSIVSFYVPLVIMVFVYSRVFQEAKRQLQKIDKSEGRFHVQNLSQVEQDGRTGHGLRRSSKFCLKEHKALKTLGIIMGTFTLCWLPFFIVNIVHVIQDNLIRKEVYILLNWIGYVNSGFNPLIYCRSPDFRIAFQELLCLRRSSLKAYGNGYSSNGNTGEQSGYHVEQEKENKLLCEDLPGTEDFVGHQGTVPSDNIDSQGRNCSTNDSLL
rRNA inh HTS: reduced GFP signal of wild-type E. coli, primary screen, bacterial rRNA inhibitor project, GFP/RFP fluorescence, OD600, single point. E. coli WT GFP vs humanized-ribosome RFP mutants, 24 h; hits give low values; DMSO median 0, no signal -100. GFP signal change (wild-type ribosome), % (test concentration not listed). actives 1.6% (n = 350,000);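 active means significant combined selectivity score with lowered wild-type GFP, culture density cut under 30%, mutant RFP and density less affected; inactive means any of these conditions unmet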; further: one replicate is shown; some compounds called inactive have numbers as strong as hits
rRNA inh HTS OD600: second read-out of rRNA inh HTS, no call of its own (marks repeat the call); OD600 change, %; measured here: OD600 growth;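 optical density of the mix in the first replicate; 0 = DMSO median and -100 = no signal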
rRNA inh HTS RFP: second read-out of rRNA inh HTS, no call of its own (marks repeat the call); RFP signal change, %; measured here: RFP humanized mutant strains;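 first replicate; 0 = DMSO median and -100 = no signal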
Active calls of the source: *; i = inactive; · = no result given. Some of the compounds tested. The share of hits here may be higher or lower than overall.

mol	FGF22 binding	rRNA inh HTS RFP	Beta2AR agonist	HNF4A DNA FP	UCH37 DUB inh	Ecoli growth	ALR inh	rRNA inh HTS OD600	rRNA inh HTS
COc1ccc(CN2C(=O)C(CC(=O)NCC3CCCCC3)CC(C(=O)N3CCOCC3)=C2C)cc1 (stereo not drawn)	i	2.4	·	1.7	·	·	·	15.1	4.9
Cc1onc(-c2ccccc2)c1C(=O)N1CCC(C)CC1	·	·	-1.5	1.1	4.1	0.684	0.9	·	·
CCC(C)C1=CC(=Nc2c(C)n(C)n(-c3ccccc3)c2=O)C=C(C(C)CC)C1=O (stereo not drawn)	i	-1.4	-3.0	-0.5	5.6	0.651	1.6	5.9	24.6
CC1=C(C(=O)O)N2C(=O)C(NC(=O)c3nn(C)cc3Cl)C2SC1 (stereo not drawn)	·	·	4.0	-2.5	1.8	0.773	-7.1	·	·
CCC(c1nnnn1Cc1ccco1)N1CCC(C(N)=O)CC1 (stereo not drawn)	·	·	-11.8	-2.6	5.1	0.716	-1.0	·	·
Cc1ccc(S(=O)(=O)N(C)c2ccc(OC(C)C(=O)N(C)c3ccccc3)cc2)cc1 (stereo not drawn)	·	14.0	13.9	-1.4	4.6	0.674	·	-20.8	1.0
COc1ccc(NC(=O)CSCC(=O)Nc2nnc(C)s2)cc1	i	-0.1	2.3	1.1	0.5	0.67	-10.2	19.4	14.8
CCOc1ccc2[nH]c3c(N4CCc5ccccc5C4)ncnc3c2c1	i	·	28.4	0.6	·	·	1.7	·	·
COc1cc(CNc2ncc(-c3ccc(Cl)cc3)n2C)cc(OC)c1OC	i	4.6	-3.9	-5.5	3.7	0.663	94.6*	6.6	13.7
CCCc1cc(=O)[nH]c(SCC(=O)Nc2ccc(Br)cc2)n1	i	3.4	17.6	-1.2	3.8	0.661	·	11.2	0.5
NS(=O)(=O)c1cccc(NC(=S)NC(=O)c2cccc([N+](=O)[O-])c2)c1	i	-5.7	-5.6	-3.1	3.3	0.7	46.8	-6.2	-14.4
COCCCn1c(C)nnc1SCC(=O)NCc1ccco1	·	·	3.0	-2.8	1.1	0.622	·	·	·
C(=NN1CCCCCC1)c1cccc2ccccc12	i	·	-4.7	0.0	1.7	0.669	·	·	·
O=C(CSc1nnc(-c2ccccc2)o1)N1CCc2ccccc2C1	·	·	7.0	3.4	3.6	0.674	·	·	·
CC[C@]12C(=O)N(C)C[C@H]([C@@H]3C(=O)N(C)C(=O)[C@@H]31)N2C(=O)c1ccc(F)cc1	i	0.5	10.9	2.2	1.0	·	·	13.5	14.4
COc1cccc(/C=C/C(=O)NCc2ccc3c(c2)OCO3)c1	i	3.5	-0.2	-2.3	2.0	0.656	·	4.6	15.6
CC12CC(NC(=O)N1c1cccc(C(=O)N3CCN(c4ccccc4)CC3)c1)c1ccccc1O2 (stereo not drawn)	·	·	-2.0	-0.3	-1.6	0.753	17.6	·	·
Cc1cccc(OCC(=O)N(Cc2ccccc2)c2c(N)n(Cc3ccccc3)c(=O)[nH]c2=O)c1	i	0.2	-1.1	-5.1	0.1	0.705	-2.7	0.2	-3.1
CC1(C)C(=O)N(c2ccccc2)C(=O)c2ccccc21	i	0.7	2.8	-0.8	3.6	0.661	-4.6	9.7	10.0
O=C(c1ccccc1SCc1ccccc1)N1CCOCC1	i	-7.7	7.2	-0.7	4.2	0.725	2.0	-6.4	2.4
CCOC(=O)C1=C(C)N(C2CCCCC2)C(=O)C1	·	·	7.1	-1.6	1.6	0.776	7.3	·	·
Cn1c(Cc2cccs2)n[nH]c1=S	·	·	3.9	12.8	0.9	0.665	0.4	·	·
C/C(=N\NC(=O)NC1CCCCC1)c1ccc(OC(F)F)cc1OC(F)F	i	-0.4	-0.9	0.7	·	·	1.7	-73.1	-40.2
O=C1CC2(CCCC2)Oc2ccccc21	i	12.2	10.8	-3.0	-10.1	0.688	·	12.4	18.4
COc1cccc(OCc2cc(C(=O)N(Cc3nccn3C)C(C)C)no2)c1	·	3.6	-2.3	1.2	1.2	0.638	-5.5	6.5	2.3
Cc1ccc(C)c(CSc2nnc(C)c(=O)[nH]2)c1	i	0.7	7.0	4.0	1.2	0.718	1.6	-11.5	-4.1
Cc1ccc(OCC(=O)Nc2ccc(CN3CCOCC3)cc2)cc1C	i	3.1	7.5	0.5	·	·	-7.9	7.3	6.8
Cc1ccc(-n2c(SCC(=O)NCc3ccco3)nc3c([nH]c4ccccc43)c2=O)cc1	i	4.1	1.6	2.8	-1.3	0.795	·	4.1	0.9
COCC(=O)Nc1ccc(S(=O)(=O)Nc2cc(C)nc(C)n2)cc1	·	·	1.1	2.3	2.1	0.694	-3.7	·	·
COC(=O)C1=CN(Cc2ccc(OC)cc2)C=C(C(=O)OC)C1c1ccsc1	i	-4.1*	0.8	-1.6	-452.9	0.704	-5.6	-8.3*	-22.1*

Part of the list above in order of count of non-hydrogen atoms, rising:
mol	FGF22 binding	rRNA inh HTS RFP	Beta2AR agonist	HNF4A DNA FP	UCH37 DUB inh	Ecoli growth	ALR inh	rRNA inh HTS OD600	rRNA inh HTS
C(=NN1CCCCCC1)c1cccc2ccccc12	i	·	-4.7	0.0	1.7	0.669	·	·	·
O=C(c1ccccc1SCc1ccccc1)N1CCOCC1	i	-7.7	7.2	-0.7	4.2	0.725	2.0	-6.4	2.4
CCC(C)C1=CC(=Nc2c(C)n(C)n(-c3ccccc3)c2=O)C=C(C(C)CC)C1=O (stereo not drawn)	i	-1.4	-3.0	-0.5	5.6	0.651	1.6	5.9	24.6

Back to the main list with the 3 entries that preceded the break.
mol	FGF22 binding	rRNA inh HTS RFP	Beta2AR agonist	HNF4A DNA FP	UCH37 DUB inh	Ecoli growth	ALR inh	rRNA inh HTS OD600	rRNA inh HTS
Cc1ccc(-n2c(SCC(=O)NCc3ccco3)nc3c([nH]c4ccccc43)c2=O)cc1	i	4.1	1.6	2.8	-1.3	0.795	·	4.1	0.9
COCC(=O)Nc1ccc(S(=O)(=O)Nc2cc(C)nc(C)n2)cc1	·	·	1.1	2.3	2.1	0.694	-3.7	·	·
COC(=O)C1=CN(Cc2ccc(OC)cc2)C=C(C(=O)OC)C1c1ccsc1	i	-4.1*	0.8	-1.6	-452.9	0.704	-5.6	-8.3*	-22.1*
CC1CN(C(=O)CCC(=O)NCCCN2CCC(Cc3ccccc3)CC2)c2cc(Cl)ccc2O1 (stereo not drawn)	i	6.7	13.8	-0.1	·	·	·	-10.1	-14.3
CC(=O)OCCCN1C(=O)c2ccc(Br)cc2C1=O	·	·	-16.7	-2.3	1.7	0.686	1.8	·	·
Cc1cc(C(=O)N2CCC2(C)C(=O)O)c(C)o1 (stereo not drawn)	i	-1.3	·	2.9	·	·	·	8.4	8.5
O=C(NN1C(=O)C2C3C=CC([C@H]4CC34)[C@@H]2C1=O)c1ccc(Br)cc1 (stereo partly drawn)	i	3.6	-4.4	-0.2	1.3	0.655	0.9	-8.4	-9.5
C=C(C)COc1ccc(-c2[nH]ncc2-c2ccc(OC)c(OC)c2)c(O)c1	·	·	-0.6	1.4	·	·	14.5	·	·
CCC(=O)NCCn1ccc2ccccc21	i	5.0	10.2	-0.5	3.9	0.708	-18.2	2.3	-0.2
COc1ccc(-c2cc(C)no2)cc1S(=O)(=O)NCc1ccc(OC(C)C)cc1	i	2.3	-14.8	-4.0	0.0	0.702	-0.1	-12.6	-0.1
Cc1ccccc1Nc1ccc(S(=O)(=O)N2CCOCC2)cc1[N+](=O)[O-]	i	·	-1.2	-1.2	0.8	0.717	-4.1	·	·
Cc1ccc(S(=O)(=O)N(CC(=O)NCCSC2CCCCC2)c2ccccc2F)cc1	·	·	0.1	-1.6	0.2	0.689	-5.3	·	·
Cc1ccc(CNC(=O)c2ccc(N3CCC4(CC3)CC(c3cccc(Br)c3)=NO4)c(NC(=O)c3ccco3)c2)cc1	i	3.1	-1.4	-5.2	-192.1	0.698	·	20.2	8.2
CC(=O)Nc1ccc2c(COC(=O)[C@@H](NS(=O)(=O)c3ccc(C)cc3)C(C)C)cc(=O)oc2c1	i	1.9	-6.3	1.3	i	0.624	-3.4	10.0	7.2
CSc1nc(C)cc(OCNC(=O)c2cccs2)n1	·	·	-18.4	0.0	1.9	0.627	-0.4	·	·
c1ccc(Cc2nc3ccccc3s2)cc1	i	4.5*	-4.6	-1.4	2.7	0.67	·	-11.9*	-17.6*
CCNC(=O)NC(=O)COC(=O)c1cccc(S(=O)(=O)N2CC3(C)CC2CC(C)(C)C3)c1 (stereo not drawn)	i	-3.2	-0.5	-6.2	0.0	0.668	-4.4	-14.8	-6.6
C/C(=N\NC(=O)CSc1nc2ccccc2s1)c1cccnc1	i	2.5*	-23.6	3.1	·	·	36.2	2.2*	-20.9*
COc1c(Cl)cnn(-c2ccc(Cl)c(Cl)c2)c1=O	i	0.3	2.9	-0.9	4.5	0.646	3.9	8.0	9.6
O=C(c1ccccc1)c1ccc(Sc2ccc([N+](=O)[O-])cc2)cc1	i	-1.2	-2.3	-1.9	5.2	0.72	-7.9	6.4	10.8
COc1ccc2oc(C(=O)N3CCN(S(=O)(=O)c4ccc(F)cc4)CC3)c(C)c2c1	i	0.2	0.8	2.7	-1.6	0.685	-33.6	-11.8	-3.7
C/C(=N\NC(N)=O)c1ccc(-n2ccnc2)cc1	i	5.0*	-0.2	-2.9	·	·	-0.9	-1.9*	-15.9*
C=CCc1cc(C)ccc1OCC(O)CN1CCN(c2ccccc2)CC1 (stereo not drawn)	i	-16.6	-3.4	2.0	2.4	0.627	26.5	-51.6	-55.0
CCCc1nnc(NC(=O)C(=O)NCCN(CC)CC)s1	i	·	15.4	2.3	4.5	0.673	·	·	·
O=S(=O)(Nc1ccc2c(c1)OCCO2)c1ccc(F)c(F)c1	i	8.3	2.1	-0.9	·	·	9.6	-13.1	5.3
CCc1cccc(NS(=O)(=O)c2cccc3cccnc23)c1	i	2.4	-0.8	2.2	-2.9	0.647	-6.7	4.5	4.2
COc1ccc(C(C)(C)C)cc1NC(=O)COC(=O)C1=NNC(=O)CC1	i	·	1.9	-1.6	-2.6	0.711	-1.8	·	·
CC(=O)Nc1ccc(NC(=O)CSc2nnc(C)n2-c2ccccc2)cc1	i	1.6	1.1	5.6	0.9	0.67	·	0.4	4.7
O=C(CN1CCN(C(=S)NC2CCCC2)CC1)Nc1ccc(Oc2ccccc2)cc1	·	·	-14.7	-0.4	4.1	0.723	-1.1	·	·
CCC(NC(=O)CNC(=O)c1ccc2c(c1)OCO2)c1ccc(Br)cc1 (stereo not drawn)	i	-1.3	0.1	-0.7	3.1	0.707	·	0.2	3.0
CCOC(=O)N1CCN(C(=O)c2ccc(C#CC3(O)CCCCC3)cc2)CC1	·	-4.4	1.2	0.0	2.1	0.717	-4.0	-26.9	-15.7
CNc1nccc(-c2ccc(F)cc2)c1C#N	i	-3.2	3.3	-0.1	-234.3	0.68	·	6.4	9.5
Cc1ccc(C(=O)NCC(=O)OCC(=O)Nc2ccccc2[N+](=O)[O-])cc1	i	-0.8	-0.8	-1.5	2.4	0.651	-22.9	-2.3	6.2
Cc1ccc(CNC(=O)C2CCN(S(=O)(=O)c3cccs3)CC2)o1	·	·	-6.8	4.3	-0.8	0.673	·	·	·
